TRPML1 agonist = human mucolipin-1 channel agonism. TRPML1-expressing cells, Ca2+ dye fluorescence, FDSS; host cell line not named in the record; reference of the full effect not given here. activation, % (no concentration beside the values). 0.12% of 410,000 active. AID 624414; in the data active = activation above about 50%; inconclusive = about 30% to 50%; inactive = below about 30%; also: 0% is about no effect; the text of the record puts the active cut at 80%
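Calcium fluorescence on an FDSS kinetic reader gave the read-out. Tet-induced TRPML1-DL cells were plated overnight, dye-loaded (Ca8 with quencher, 45-90 min, room temperature, dark), then read 110 s after compound addition, and again 110 s after 4uM final 54-4 (EC80).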
PINK1 expr mod = PINK1 expression modulation; Potency, µM (series often up to 76.6 µM), without a hit: at the highest dose activation (PINK1 increase), usual class: activators; PINK1 immunofluorescence, high-content cytometry, 24 h; 0.2% of 410,000 active; active = well fitted activation curve with a large enough effect; inconclusive = small, poorly fitted or top-dose-only effect; inactive = flat fitted curve, though single readings scatter; cell line not stated here;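 also: potency is read from the fitted curve at half-maximal effect; % of control where 0% means no effect; nearly all actives have a fitted effect of over 65% in size; a mitochondrial uncoupler was the plate control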
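Stable cell line, 250 cells/well, 12 h attachment; compounds pinned at 5 concentrations, 24 h; CCCP control. Fixed with nuclear dye, primary antibodies 12 h at 10 degrees C, secondary plus cell stain; laser-scanning cytometer read.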
TRPML1 inh = inhibitors of human TRPML1 channel. Q9GZU1. TRPML1-inducible cells, Ca2+ dye fluorescence, FDSS; active compounds read low; inhibition of EC80 agonist-evoked calcium signal. activity change, negative = inhibition, % (no concentration beside the values). 0.02% of 390,000 active; in the data active means activity change below about -50%; inconclusive means about -30% to -50%; inactive means above about -30%;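 also: stimulus is agonist 54-4 at its EC80 concentration; % is scaled to controls: 0 for no effect and ±100 for the full control effect; compound concentration not given in the record; the text of the record puts the active cut at -80%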
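Tet-induced TRPML1-DL cells loaded with Ca8 no-wash calcium dye were read kinetically on FDSS. Compound addition was followed by EC80 agonist 54-4 (4 uM final); inhibition was read over 110 s.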
Six1-Eya2 blk = inhibitors of human Six1/Eya2 interaction | 0.56% of 360,000 active | activity change, % (test concentration not listed) | AlphaScreen GST-Six1/His-Eya2 binding, biochemical; active compounds read low; control for the full effect not named in the record | Q15475+O00167 | AID 651725; in the data active = activity change below about -65%; inconclusive = about -30% to -65%; inactive = above about -30%; also: % is scaled to controls: 0 for no effect and ±100 for the full control effect
Target sequence (O00167 whole entry, looked up): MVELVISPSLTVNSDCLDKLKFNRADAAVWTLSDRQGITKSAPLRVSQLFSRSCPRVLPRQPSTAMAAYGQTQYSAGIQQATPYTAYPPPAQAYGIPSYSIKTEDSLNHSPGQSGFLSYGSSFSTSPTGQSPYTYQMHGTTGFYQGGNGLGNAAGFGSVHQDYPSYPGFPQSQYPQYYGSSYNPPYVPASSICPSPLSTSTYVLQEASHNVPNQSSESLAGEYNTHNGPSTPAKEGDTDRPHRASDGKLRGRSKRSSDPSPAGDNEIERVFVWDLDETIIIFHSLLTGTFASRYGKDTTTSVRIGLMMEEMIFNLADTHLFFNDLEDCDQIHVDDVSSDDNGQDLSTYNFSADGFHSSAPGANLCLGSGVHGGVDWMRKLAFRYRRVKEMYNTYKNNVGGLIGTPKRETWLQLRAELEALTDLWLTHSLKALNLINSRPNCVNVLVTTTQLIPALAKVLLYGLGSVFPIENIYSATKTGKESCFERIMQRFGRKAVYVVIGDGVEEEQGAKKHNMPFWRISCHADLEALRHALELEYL
Target sequence (Q15475 whole entry, looked up): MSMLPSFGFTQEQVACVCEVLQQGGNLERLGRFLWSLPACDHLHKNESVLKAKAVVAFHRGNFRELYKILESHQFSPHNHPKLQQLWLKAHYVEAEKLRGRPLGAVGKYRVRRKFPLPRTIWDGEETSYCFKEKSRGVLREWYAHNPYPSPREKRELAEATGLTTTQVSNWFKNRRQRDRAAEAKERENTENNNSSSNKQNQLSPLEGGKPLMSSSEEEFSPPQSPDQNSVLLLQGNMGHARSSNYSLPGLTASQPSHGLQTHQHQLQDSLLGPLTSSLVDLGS
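Compounds are tested against tagged Six1 and Eya2 proteins bridged by glutathione donor and nickel acceptor beads; after a one-hour incubation at 37 °C without light, AlphaScreen emission is recorded.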
CtBP-E1A inh = blocks the CtBP interaction with E1A; AlphaScreen GST-E1A/His-CtBP binding, 1536-well; active compounds read low; control for the full effect not named in the record; 0.49% of 340,000 active; AID 651724; activity change, % (no concentration beside the values); in the data active means activity change below about -65%; inconclusive means about -30% to -65%; inactive means above about -30%; also: % is scaled to controls: 0 for no effect and ±100 for the full control effect
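Homogeneous bead-based format: GST-tagged E1A captured on glutathione donor beads, His-tagged CtBP on nickel acceptor beads; compounds precede bead addition by 2 h at 37 °C.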
D2 agonist = human D2 receptor agonism in beta-arrestin assay. P14416. AID 624465. 0.084% of 360,000 active. DiscoveRx PathHunter D2 beta-arrestin, luminescence, 90 min; 100% = 57 uM dopamine signal. activation, % (no concentration beside the values); in the data active = activation above about 40%; inconclusive = about 15% to 40%; inactive = below about 15%; also: compound concentration not given in the record; the text of the record calls up to 30% inactive
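DiscoveRx PathHunter D2 beta-arrestin cells (2,100/well) attached overnight, then compound-stimulated 90 min at 37 C in HBSS/10 mM HEPES/0.1% Tween-20 buffer; beta-galactosidase complementation read by luminescence after 1 h at ambient temperature. Dopamine 57 uM final (EC100) as control.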
Active calls of the source: *; ? = inconclusive; . = not tested or not shown; & = joins results of further samples; [ ] = remark or other dose.

SMILES	TRPML1 agonist	PINK1 expr mod	TRPML1 inh	Six1-Eya2 blk	CtBP-E1A inh	D2 agonist
CCCOc1ccc(OCCNC2CCCC2)cc1	1.4	0.7%	-4	-1	6	-5.0
Cc1cccc(NC(=O)N2CCC(CN3CCOCC3)CC2)c1C	0.2	-1.3%	?	.	.	.
CCOC(=O)c1sc2nc(C)nc(NCc3ccc(F)cc3)c2c1C	8.0	27%	84	4	17	5.6
CCCn1c2ccccc2c2cnn(CC(=O)N3CCN(C4CCCCC4)CC3)c(=O)c21	-0.6	-1.2%	13	0	4	-15
CCSc1ncc(Cl)c(C(=O)Nc2ccc(S(=O)(=O)Nc3onc(C)c3C)cc2)n1	-0.6	-1.9%	9	1	3	-2.5
C[C@@H]1CN([C@H](C)CO)C(=O)CCCn2cc(nn2)CO[C@H]1CN(C)C(=O)Cc1ccccc1	-0.3	1.5%	-27	16	-27	-5.1
COc1ccccc1NC(=O)CNC(=O)c1ccccc1C	0.1	-2.5%[38.3 µM]	-6	2	4	0.6
O=C(NC1CCCc2c1cnn2-c1cc(F)cc(F)c1)c1cc[n+]([O-])cc1 (stereo not drawn)	0.1	0.5%	-7	8	9	-5.0
COC(=O)c1ccc(NC(=S)NCc2ccco2)cc1	0.1	-0.1%	-19	-1	4	1.9
CC(=O)c1cccc(Nc2ccc(C#N)cc2)c1	-0.8	-0.1%	.	1	3	0.4
CCOC(=O)N1CCN(C(=O)CNC(=O)c2nn(-c3ccc(OC)c(Cl)c3)c(=O)c3ccccc23)CC1	1.0	0.6%	4	11	2	13
Cc1cc(C)n2c(Nc3ccc4c(c3)OCCO4)c(C(C)C)nc2n1	-0.8	-0.1%	.	-9	-4	.
CCCNC(=O)C1(C)CCCN(C(=O)c2cccnc2Oc2ccccc2)C1 (stereo not drawn)	-0.3	0.5%	.	1	7	-6.3
O=C(c1cccc(Cl)c1)N(Cc1ccco1)Cc1ccccc1Cl	1.3	3.8%	58	.	.	.
CC(C)Cn1c(=O)c(C(=O)Nc2ccccc2S(N)(=O)=O)c(O)c2ccccc21	0.2	-1.4%[38.3 µM]	8	-3	2	2.5
CC1=C(C(=O)OC(C)C)C(c2ccc3c(c2)OCO3)NC(=O)N1 (stereo not drawn)	0.6	-1.6%	28	4	4	0.0
CCOc1ccc(NC(=O)c2cnn3c2NC(c2ccccc2)=CC3c2cccc(OC)c2OC)cc1 (stereo not drawn)	-1.0	-0.2%	-9	.	.	.
CC(C)C(=O)Nc1cccc(S(=O)(=O)NC2=NCCC2)c1	-0.1	0.8%	-4	4	-1	-4.0
CCOc1ccccc1-n1nnnc1SCc1nc2ccccc2s1	0.0	-0.4%	22	5	4	1.3
Nc1c(S(=O)(=O)c2ccccc2)c2nc3ccccc3nc2n1Cc1ccco1	4.9	-0.2%[38.3 µM]	22	-2	-9	-1.1
O=C(Nc1ccccc1)c1cc(C2COCCN2C(=O)c2ccccn2)on1 (stereo not drawn)	0.5	2.5%	.	13	-21	-4.4
O=C1c2ccccc2C(=Cc2cccnc2)c2ccccc21	-0.4	1.1%	-3	?	-13	2.7
O=C(O)CCc1ccc(-c2ccc(F)cc2)n1Cc1ccco1	1.0	22%[38.3 µM]	-21	-4	-8	-2.1
O=c1c(-c2ccccc2)c(-c2ccccc2)oc2cc(O)cc(O)c12	-0.8	2.0%	37	-14	4	-2.3
CCN(CC(=O)Nc1c(F)cccc1F)C(=O)c1cc2ccccc2oc1=O	-0.9	1.8%	8	-2	6	-2.0
CCCCc1nnc(NC(=O)C2CC(=O)N(Cc3ccccc3)C2)s1 (stereo not drawn)	0.9	-0.9%	-3	-3	3	-1.2
CCNC(=O)CSc1nc2cc([N+](=O)[O-])ccc2n1-c1cccc(C(F)(F)F)c1	3.0	26%	4	-12	3	-3.4
CN(C)CC(=O)N1CCc2ccccc2C1	-1.0	0.7%	4	2	-2	-6.0
CCOC(=O)c1nn(-c2ccc(F)cc2)c(=O)cc1OCC(=O)N1CCN(c2ccccc2)CC1	0.4	0.2%	-1	-18	-1	-5.6
CC(OC(=O)c1ccc(Cl)c(S(N)(=O)=O)c1)C(=O)NCC1CCCCC1 (stereo not drawn)	-1.5	1.5%	-6	-1	.	-0.7
O=C1[C@H](Cc2ccccc2)NCC=CC[C@@H](c2ccc(Cl)cc2)N1Cc1ccc(Cl)cc1	2.0	-1.5%	30	0	-1	-4.4
CN(CCCNC(=O)Cn1cccc1C(=O)c1ccccc1)C1CCCCC1	2.1	-1.5%	39	-1	8	-2.1
Cc1ccccc1Nc1nc(N)nc(COC(=O)c2c(C)noc2C)n1	-0.6	1.3%	-3	-1	3	0.7
COc1ccc(N=Cc2c(O)cc(C)oc2=O)cc1	-0.2	-0.6%	7	-6	-3	2.2
FC(F)(F)c1cccc(-c2nc(COc3ccc(Cl)cc3Cl)no2)c1	0.7	6.7%	-10	32	59	-2.6
CC1(NC(=O)C2CCN(C(=O)Nc3ccccc3)CC2)CCS(=O)(=O)C1 (stereo not drawn)	-0.2	-0.2%	-2	20	7	-3.9
COc1cccc(CC(NC(C)=O)C(=O)NC2CCN(c3nc(C)cc(C)c3C#N)CC2)c1 (stereo not drawn)	-0.2	-0.7%	-12	-2	4	-1.6
Cc1cccc(C(C(=O)NC2CCCCC2)N(Cc2cccnc2)C(=O)c2csnn2)c1 (stereo not drawn)	0.0	2.5%	25	-3	0	-2.9
CC(C)c1nc2ccc(C(=O)NC(C)c3ccccc3)cc2o1 (stereo not drawn)	-1.1	0.0%	-1	.	.	.
O=S(=O)(c1ccc2ccccc2c1)N1CCCCCC1	0.4	-0.1%	10	14	.	11
Cc1c(C(=O)c2ccc(F)cc2)c2ccccn2c1CCc1ccccn1	0.8	5.6%	-3	1	1	-3.7
N#C/C(=C(/O)CSc1nnc(Cc2cccs2)n1C1CCCCC1)c1nc2ccccc2[nH]1	-1.0	-0.2%	-17	-13	-12	-2.9&-1.5
Cc1nc2ccccc2c(=O)n1NC(=O)C1CC1	-0.4	-0.4%	-5	10	-13	-2.5
Cc1ccccc1NC(=O)Cc1cccs1	0.6	0.8%	13	1	9	-4.1
CCCCOC(=O)Nc1nnc(CC(=O)NCc2ccccc2)s1	-0.2	3.0%	1	-2	1	0.9
O=C(NC(=O)N1CCN(c2ccc([N+](=O)[O-])cn2)CC1)c1c(Cl)cccc1Cl	0.0	28%	4	8	4	-3.8
C=CCOc1ccc(/C=C(\C#N)C(=O)Nc2ccccn2)cc1OC	-0.4	-0.4%	17	0	1	-3.5
Cc1c(C(=O)N2CCCc3ccccc32)oc2ccc(S(=O)(=O)N3CCOCC3)cc12	0.6	10%[38.3 µM]	5	6	38	-0.8
CCC(C)C(NC(=O)C1CCC(C)CC1)C(=O)NCCc1ccc(S(N)(=O)=O)cc1 (stereo not drawn)	1.3	0.8%	-4	6	.	-3.3
CC(=O)Nc1ccc(C2=NNC(=Nc3ccc(S(=O)(=O)N4CCOCC4)cc3)SC2)cc1	1.0	?	-12	?	-28	6.6
Cc1ccc(NC2=NC(c3ccccc3)n3c(nc(C)cc3=O)N2)c(C)c1 (stereo not drawn)	-0.3	-0.1%[38.3 µM]	11	1	7	-0.5
Cc1cc(C)n(Cc2ccc(C(=O)Nc3cccc(Br)c3)o2)n1	0.2	1.7%	-8	6	-4	-1.7
O=C(CCNC(=O)C1CCN(S(=O)(=O)c2ccccc2)CC1)NCc1cccc(C(F)(F)F)c1	-0.4	1.1%	-6	0	3	8.3
C/C(Cl)=C\Cn1c(O)c(N=NC(N)=S)c2cc(Br)ccc21	6.4	1.8%	-12	?	-12	-16
CCN(CC)CCCNc1nc(C)cc(COC)c1C#N	-0.1	3.6%	8	-5	-13	-2.5
CCOC(=O)c1c(C)[nH]c(C)c1C(=O)CSc1nc2ccccc2n1CCC#N	0.6	1.6%	-15	2	-14	1.3
COc1cc(NC(=O)Cn2cnc3c2c(=O)n(C)c(=O)n3C)c(OC)cc1Cl	-0.1	1.6%	5	.	.	.
CC(C)CN(CC(C)C)c1nc(-c2ccc(Cl)cc2)nc2ccccc12	1.7	-0.5%	-18	.	.	.
COc1ccc(NC(=O)CSc2nncn3c2cc2oc(C)cc23)cc1OC	0.4	0.0%	-7	.	.	.
COC(=O)CSc1nnnn1-c1cccc2ccccc12	-0.1	7.9%[38.3 µM]	6	4	7	-1.0

Entries listed so far that have two or more sulfur atoms:
SMILES	TRPML1 agonist	PINK1 expr mod	TRPML1 inh	Six1-Eya2 blk	CtBP-E1A inh	D2 agonist
CCSc1ncc(Cl)c(C(=O)Nc2ccc(S(=O)(=O)Nc3onc(C)c3C)cc2)n1	-0.6	-1.9%	9	1	3	-2.5
CCOc1ccccc1-n1nnnc1SCc1nc2ccccc2s1	0.0	-0.4%	22	5	4	1.3
N#C/C(=C(/O)CSc1nnc(Cc2cccs2)n1C1CCCCC1)c1nc2ccccc2[nH]1	-1.0	-0.2%	-17	-13	-12	-2.9&-1.5
CC(=O)Nc1ccc(C2=NNC(=Nc3ccc(S(=O)(=O)N4CCOCC4)cc3)SC2)cc1	1.0	?	-12	?	-28	6.6

Further structures.
SMILES	TRPML1 agonist	PINK1 expr mod	TRPML1 inh	Six1-Eya2 blk	CtBP-E1A inh	D2 agonist
Cc1ccc2nc(CC(O)(c3ccccc3)c3ccccc3)ccc2c1	1.7	7.0%	-7	9	1	-6.0
CCOc1ccc(NC(=O)Cn2cc(C(=O)c3ccc(C)cc3)c(=O)c3cc4c(cc32)OCCO4)cc1	0.3	1.6%	5	.	.	.
COC(=O)c1cc(S(=O)(=O)N2CCN(c3ccc(F)cc3)CC2)cn1C	0.8&-1.1	2.3%&1.1%	-16&-9	4	.	6.0
Cc1c(C(=O)N2CCCCC2)c(S(=O)(=O)N2CCN(c3ccc(F)cc3)CC2)c(C)n1C	-0.7	-2.1%	-7	1	-1	3.8
COc1ccccc1C(=O)Oc1ccc(N2C(=O)CCC2=O)cc1	-0.8	0.6%	-12	3	6	-1.4
COc1ccc(NC(=O)CCCN2C(=O)C(c3ccccc3)Oc3cccnc32)cc1OC (stereo not drawn)	2.1&0.4	2.0%&0.5%	-8&-11	-11	-17	2.0
CCOC(=O)C1(C)CCCCN1C(=O)c1ccccc1OC (stereo not drawn)	-0.4	0.0%	.	-1	1	-5.2
Cc1ccc2c(c1)cc(CN(Cc1cccs1)C(=O)c1ccco1)c1nnnn12	4.3	-2.3%	33	-17	-10	-0.5
O=C1OCC/C1=C\OCCCO/C=C1\CCOC1=O	0.0	8.7%	5	1	.	1.8
N=c1sccn1CC(=O)Nc1cccc(S(N)(=O)=O)c1	1.1	-0.6%	-2	-2	-3	-2.7
COC(=O)c1ccc(C)c(NS(=O)(=O)c2ccc3c(c2)OCCO3)c1	0.0	15%[38.3 µM]	-7	1	-18	-1.7
CC(NC(=O)c1ccc2c(c1)CCN2S(=O)(=O)c1ccc(Cl)cc1)c1ccccc1 (stereo not drawn)	1.3	0.8%	12	.	.	.
Cc1cccc2nc(CSc3ccccc3C(=O)O)cn12	-0.4	4.9%	1	0	6	2.4
